Screening data: PubChem BioAssay, National Center for Advancing Translational Sciences (NCATS)
VDR inhibitor: blocks the human vitamin D receptor; P11473; Potency, µM, inactives show max response, negative = inhibition, usual class: inhibitors; 400,000 compounds, 0.93% hits; VDR-SRC2-3 peptide fluorescence polarization, 2 h; active means well fitted inhibition curve with a large enough effect; inconclusive means small, poorly fitted or top-dose-only effect, or another doubt; inactive means no such curve, though single readings can be large or run the other way; further: series mostly up to about 120 µM
Target sequence (P11473 whole entry, looked up): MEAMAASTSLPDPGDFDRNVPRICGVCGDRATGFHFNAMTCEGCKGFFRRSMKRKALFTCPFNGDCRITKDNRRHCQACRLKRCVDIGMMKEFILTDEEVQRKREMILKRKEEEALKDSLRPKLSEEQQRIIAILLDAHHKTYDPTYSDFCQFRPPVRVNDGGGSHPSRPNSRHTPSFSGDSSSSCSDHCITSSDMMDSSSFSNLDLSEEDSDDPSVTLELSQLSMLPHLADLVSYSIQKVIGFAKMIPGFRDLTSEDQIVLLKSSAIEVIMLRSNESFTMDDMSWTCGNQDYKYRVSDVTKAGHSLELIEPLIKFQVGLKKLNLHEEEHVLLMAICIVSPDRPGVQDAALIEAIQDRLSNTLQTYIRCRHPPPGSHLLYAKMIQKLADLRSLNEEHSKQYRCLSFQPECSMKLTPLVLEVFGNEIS
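FP read-out; VDR + SRC2-3 coactivator peptide; 23 nl compound by pintool; 2 h RT incubation; reagents held at 4 deg C, protected from light.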
* = called active by the depositor; ? = inconclusive; & = joins results of further samples; [ ] = dose if it differs, or a comment. On the % scale 0 is the no-effect control and ±100 the full control effect; potency means the concentration at half of the fitted maximal effect.

SMILES,VDR inhibitor
CCCCCN1C(C(=O)c2ccccc2)=C(NC(=O)c2ccc(OC)cc2)c2ccccc2S1(=O)=O,10%
O=C(CSc1n[nH]c(-c2ccccc2)n1)Nc1ccc(Br)cn1,-1%
O=c1c2ccccc2nc(-c2ccc(Cl)cc2Cl)n1O,23%
COc1ccc(C(=O)Nc2ccc(NC(=O)C3CCCCC3)nc2)cc1,5%
O=C(CSc1nnc(Cc2ccccc2)o1)Nc1ccc(N2CCOCC2)cc1,3%
COC(=O)n1c(=O)oc2ccc(S(=O)(=O)N3CCCCC3)cc21,15%
COc1ccc(C(=O)NCc2ccncc2)cc1S(=O)(=O)N1CCOCC1,?
COc1ccc(NC(=O)C(C)n2c(C)c3cnn(-c4ccccc4)c(=O)c3c2C)cc1Cl (stereo not drawn),-6%
Cc1ccc(CN2[C@@H](CC(C)C)COCCS2(=O)=O)cc1,-4%
CC(C)CNC(=S)NC(=O)c1ccccc1Cl,-22%
COc1cc(C2=NC(CO)(CO)CO2)cc(OC)c1OC,9%
Cc1cc(C)cc(NC(=O)Nc2c[nH]c(=O)[nH]c2=O)c1,-3%
O=c1c(-c2cccs2)nc2cncnc2n1C1CC1,1%
Cc1cccc(CN2CCC(CNC(=O)Cn3ncc4c([nH]c5ccccc54)c3=O)CC2)c1,-22%
O=C(COc1ccccc1)NNc1nc2c(F)cc(F)cc2s1,6%
COCCn1c(N)c(C(=O)Nc2sc3c(c2C(=O)OC)CCCC3)c2nc3ccccc3nc21,9%
O=C(NCc1nc2ccccc2[nH]1)c1c(F)c(F)c(F)c(F)c1F,1%
CCOC(=O)C1CCN(C(=O)c2c(-c3ccccc3)noc2C)CC1,-13%
COc1ccc(Nc2cc(C)c3cc(NC(=O)Cc4c(F)cccc4Cl)ccc3n2)cc1,11%
COc1ccnc(Oc2ccc(F)cc2)c1-c1ncn[nH]1,-1%
CCOc1ccc(C(=O)Nc2ccc(-c3nnc4n3CCCCC4)cc2)cc1OCC,5%
O=C(Nc1nnc(C2CC2)s1)c1cccc(S(=O)(=O)N2CCc3ccccc32)c1,-7%
c1ccc2c(-c3cc(C4CCNCC4)[nH]n3)cccc2c1,5%
C=CCSc1ccsc1C(=O)O,-4%
CCOc1cc(N2CCOCC2)c(OCC)cc1NC(=O)c1ccc(OCc2c(C)noc2C)c(OC)c1,-23%
Cc1ccc(CNS(=O)(=O)c2ccc(-c3cc(C(F)(F)F)on3)s2)cc1,7%
O=C1C2CC=CCC2C(=O)N1c1ccc(NCCc2cccc(F)c2)c([N+](=O)[O-])c1 (stereo not drawn),-25%
Cc1cc(=O)[nH]c2nnc(SCC(=O)Nc3cc(C(F)(F)F)ccc3Cl)n12,6%
COc1cc(NC(=O)c2ccc(Br)cc2)ccc1NC(=O)c1cc2ccccc2o1,-31%
CN1CCN(C(=O)c2ccc(CNS(=O)(=O)c3ccc(F)c(Cl)c3)cc2)CC1,-1%
O=C(CSc1nc(=O)[nH]c2c1CCCC2)NCc1ccc(Cl)cc1,11%
CCn1c(CNc2ccc(Cl)cc2)nnc1SCC(=O)OC1CCCCC1,-6%
O=C(NC1CCCC1)C1CCC(CNS(=O)(=O)c2cccs2)CC1 (stereo not drawn),9%
CCCCOC(=O)c1ccc(NC(=O)c2ccc3c(c2)CCN3S(C)(=O)=O)cc1,4%
CCc1nnc(NS(=O)(=O)c2ccc(NC(=S)NC(=O)c3ccc(Br)cc3)cc2)s1,?
Cc1cc(NC(=O)CCC2CCCCC2)no1,12%
COc1ccccc1N1CC(C(=O)Nc2nnc(SCc3cccnc3)s2)CC1=O (stereo not drawn),-2%
Cc1cccc(C(=O)NC(=S)NNC(=O)c2ccccc2Cl)c1,-10%
Brc1ccc(CSc2nnc(-c3ccccn3)n2Cc2ccco2)cc1,-11%
CC(=O)Nc1nonc1NC(=O)COc1ccccc1,-16%
CC(=O)C1=C(C)NC(=O)NC1c1ccccc1 (stereo not drawn),2%
Cc1cccc(NC(=O)Cc2coc3ccc4ccccc4c23)n1,-1%
COC(=O)C1=C(c2ccccc2)c2ccccc2S(=O)(=O)N1CC(=O)Nc1ccc(OC)cc1OC,1%
O=C(c1ccc(S(=O)(=O)Nc2ccccc2F)cc1)N1CCN(c2ccccc2O)CC1,-5%
Cc1cc(=O)n2nc(N3CCCC(C(=O)NCCC4=CCCCC4)C3)sc2n1 (stereo not drawn),0%
Cn1ncc(C#N)c1/N=C/N(Cc1ccccc1)Cc1ccccc1,16%
CCOc1ccc(NC(=O)COC(=O)c2ccc3c(c2)OCCO3)cc1,12%
CC(OC(=O)C1CCC1)C(=O)Nc1cc(Cl)cc(Cl)c1 (stereo not drawn),-1%
CC(C)(C)c1ccc(OCCCC(=O)NNC(=O)c2ccccc2O)cc1,-4%
N#CCCn1cc(/C=C(\C#N)c2nc3ccccc3s2)c(-c2ccc(F)cc2)n1,-5%

Next section.
canonical_smiles	VDR inhibitor
O=S1(=O)CCOC[C@H](CC2CCCCC2)N1Cc1ccc(Cl)cc1	-5%
COc1ccc(CCC(=O)N2CCCC(Nc3ccc(C)c(C)c3)C2)cc1OC (stereo not drawn)	-21%
Cc1c(C(=O)O)oc2c1ccc1ccccc12	-6%
COC(=O)c1sccc1S(=O)(=O)N(CC(=O)Nc1ccc(C)c(F)c1)c1ccc(C)c(C)c1	9%
O=C(NCCc1cccc(F)c1)C1CCCN(c2nc3ccccc3s2)C1 (stereo not drawn)	19%
Cc1ncc([N+](=O)[O-])n1CC(C)O (stereo not drawn)	2%&0%
CCN(CC)S(=O)(=O)c1ccc(N2CCOCC2)c(NC(=O)c2ccccc2)c1	15%
O=C(CCC(=O)Nc1ccccc1)NNC(=O)c1ccco1	1%
CCN(CC)c1nc2c3c(nc4c(c3c1C#N)CC(=O)N4c1ccc(Cl)cc1)NC(C)=N2	-9%
Cc1cc(-c2ccc(C)c(S(=O)(=O)NCC3CCN(Cc4ccccc4F)CC3)c2)on1	-10%&11%
COc1cc2c(cc1OC)C(O)C(O)(CO)C(C(=O)O)C2c1cc(OC)c(OC)c(OC)c1 (stereo not drawn)	2%
O=C(O)/C(=C\c1ccc(Br)cc1)NC(=O)c1cccs1	14%
COc1ccc(CCNC(=O)CSc2nnc3c(n2)[nH]c2ccc(F)cc23)cc1OC	1%
CC1CCc2ccccc2N1C(=N)N(C)C (stereo not drawn)	?
O=C(CCC(=O)c1ccc(-c2ccccc2)cc1)Nc1cccnc1	-4%
Cc1ccc(C(=O)N2CCN(c3ncccn3)CC2)cc1S(=O)(=O)N1CCCCC1	-5%
NNc1nc(-c2ccccc2)cs1	10%
O=C(Nc1ccc(S(=O)(=O)Nc2nccs2)cc1)c1cc(=O)[nH]c2ccccc12	-16%
Cc1ccc(N2CCN(C(=O)c3cc(-c4ccc(F)cc4)[nH]c3C)CC2C)cc1 (stereo not drawn)	-5%
O=C1CSCC(=O)N1c1ncc(C(F)(F)F)cc1Cl	-7%
CCCCCCC(=O)Nc1nc(C)c(-c2csc(Nc3ccc(Cl)cc3)n2)s1	-8%
O=C(Cc1ccccc1)Nc1ccccc1C(=O)Nc1ccc(C(=O)O)cc1	-6%
CCOC(=O)Cn1c(=O)oc2cc(S(=O)(=O)Nc3c(C)cc(C)cc3C)ccc21	-15%
N/C(=N\OC(=O)Cc1ccccc1)c1cccc(Br)c1	-3%
CC(C)(C)C(=O)Nc1ccc2c(c1)C(=O)C(=O)c1ccccc1-2	8.9µM*
COc1ccc(N(Cc2cc3ccc(C)cc3[nH]c2=O)C(=O)c2ccco2)cc1	-1%
CCCc1nnc(NC(=O)c2cc3ccccc3o2)s1	14%
CCOC(=O)c1c(C)oc2nc(C)nc(NCC3CCN(Cc4cccc(C)c4)CC3)c12	12%
CN1CCN(C(=S)Nc2ccc(Cl)cc2)CC1	6%
CC(C)(C)NC(=O)CC(CC(=O)O)c1ccccc1 (stereo not drawn)	9%
COc1cc(OC)cc(-c2c(C#Cc3ccsc3)c3cc(-c4cccc5[nH]cc(C=O)c45)ccc3n2C)c1	-3%
Cn1c(=O)c2c(nc(Sc3n[nH]c(N)n3)n2Cc2ccccc2Cl)n(C)c1=O	3%
O=C(NC(Cc1ccccc1)C(=O)N1CCN(S(=O)(=O)c2ccccc2F)CC1)c1ccccc1 (stereo not drawn)	-20%
C=CCSC1=C(C#N)C(c2ccccc2Cl)CC(=O)N1 (stereo not drawn)	?
CCOC(=O)C1(CC2CCCCO2)CCN(C(=O)Nc2cccc(SC)c2)CC1 (stereo not drawn)	-10%
COc1ccc(C)cc1NC(=O)c1oc2ccc(S(=O)(=O)N(C)C3CCCCC3)cc2c1C	4%
O=C(CCCN1C(=O)c2ccccc2C1=O)NCC1CCCO1 (stereo not drawn)	-7%
O=c1c2ccccc2nnn1CSc1ccccc1	?
CCOc1ccccc1NC(=O)Cn1nc2c3cc(F)ccc3n(Cc3cccc(C)c3)cc-2c1=O	13%
COC(=O)N/N=C/c1cc(Cl)c(OCc2ccccc2F)c(OC)c1	13%
CC(Sc1ncnc2sc(-c3ccccc3)cc12)C(=O)N1CCNC1=O (stereo not drawn)	13%
CN(C)C(=O)[C@@H]1C[C@H]1[C@@H](NC(=O)OCc1ccccc1)c1ccccc1	4%
CCn1ccnc1CN(C)C(=O)c1cc(COc2ccc(-n3cncn3)cc2)on1	0%
CN(C)S(=O)(=O)Nc1ccccc1C(N)=O	-19%
COc1ccccc1CCNC(=O)c1ccc(OC)c(OC2CCN(C(C)C)CC2)c1	1%

Look-ups from the results shown:
For VDR inhibitor, O=C(CSc1nnc(Cc2ccccc2)o1)Nc1ccc(N2CCOCC2)cc1 has 3%
For VDR inhibitor, O=C(NC(Cc1ccccc1)C(=O)N1CCN(S(=O)(=O)c2ccccc2F)CC1)c1ccccc1 (stereo not drawn) has -20%
For VDR inhibitor, O=C1CSCC(=O)N1c1ncc(C(F)(F)F)cc1Cl has -7%
For VDR inhibitor, C=CCSc1ccsc1C(=O)O has -4%
For VDR inhibitor, CCOC(=O)C1(CC2CCCCO2)CCN(C(=O)Nc2cccc(SC)c2)CC1 (stereo not drawn) has -10%
For VDR inhibitor, Cc1cc(NC(=O)CCC2CCCCC2)no1 has 12%

Other structures.
canonical_smiles	VDR inhibitor
COc1ccc(CN2C(=O)C(C)Nc3ncnc(N4CCOCC4)c32)cc1 (stereo not drawn)	9%
Cc1ccsc1C(=O)OCC(=O)Nc1ccc(Cl)cc1C(F)(F)F	0%
COCCN(C(=O)CSCc1ccc(C)cc1)c1c(N)n(CC(C)C)c(=O)[nH]c1=O	-4%
O=C(O)c1cc(S(=O)(=O)N2CCOCC2)c[nH]1	13%
Cc1nnc(SCC(=O)NC(=O)NC(C)(C)C)s1	0%
Cc1ccc(C(=O)OCC(=O)NCc2cccs2)c(C)c1	11%
N#CC1=C(S)N=C(N)C(c2nc(-c3ccccc3)cs2)C12CCCCC2 (stereo not drawn)	?
Cc1ccc(Nc2nc(N)nc(CSc3nnnn3-c3ccccc3)n2)cc1	4%
Cc1ccccc1Cn1c(CN2CCC(C(=O)NCc3ccc(Cl)cc3)CC2)cc2ccccc21	16%
O=C(O)Cc1sc(Nc2cccc3ccccc23)nc1-c1ccc(Cl)cc1	-2%
CCOc1cc(-c2nc3n(c(=O)c2C#N)CCS3)ccc1O	16%
COCCN(C(=O)CSc1nc2ccc(C)cc2[nH]1)c1c(N)n(Cc2ccccc2)c(=O)[nH]c1=O	20%
CC(C)C(=O)NC(=S)Nc1c(Cl)ccc2nsnc12	17%
CCOC(=O)c1ccc(NC(=O)CCCn2nc(C)c3sc4ccccc4c3c2=O)cc1	10%
Cc1ccc(S(=O)(=O)CCC(=O)N2CCN(c3ccc(Cl)cc3)CC2)cc1	3%

For reference, some entries already given:
canonical_smiles	VDR inhibitor
CCOC(=O)c1ccc(NC(=O)CCCn2nc(C)c3sc4ccccc4c3c2=O)cc1	10%
Cc1ccc(S(=O)(=O)CCC(=O)N2CCN(c3ccc(Cl)cc3)CC2)cc1	3%

Arranged by the number under VDR inhibitor (lowest first): some entries from above
smiles	VDR inhibitor
Cc1cccc(C(=O)NC(=S)NNC(=O)c2ccccc2Cl)c1	-10%
O=C(Cc1ccccc1)Nc1ccccc1C(=O)Nc1ccc(C(=O)O)cc1	-6%
Cc1cc(=O)n2nc(N3CCCC(C(=O)NCCC4=CCCCC4)C3)sc2n1 (stereo not drawn)	0%
Cc1ccc(Nc2nc(N)nc(CSc3nnnn3-c3ccccc3)n2)cc1	4%
CN1CCN(C(=S)Nc2ccc(Cl)cc2)CC1	6%
NNc1nc(-c2ccccc2)cs1	10%

(listing goes on)
canonical_smiles	VDR inhibitor
O=C(N/N=C/c1sc(=O)n(-c2ccccc2)c1Cl)c1ccccc1	22%
COc1ccc(OC)c(NC(=O)Cn2cnc3onc(-c4ccc(Cl)cc4)c3c2=O)c1	-3%
OCCC1CN(Cc2nc3ccccc3[nH]2)CCN1C1CCCC1 (stereo not drawn)	-14%
N#Cc1cn(CC(=O)NCC2CCCO2)c2ccccc12 (stereo not drawn)	14%
NC(=O)c1cc[n+](CC2=C(C(=O)O)N3C(=O)[C@@H](NC(=O)[C@@H](c4ccccc4)S(=O)(=O)[O-])[C@H]3SC2)cc1	?
CN(C(=O)C1CCOC1)c1nnc(-c2ccncc2)s1 (stereo not drawn)	31%[activator]
Cc1ccc(C(=O)CCNc2ccccc2)o1	7%
O=C(CSc1nnc(CNC(=O)c2ccco2)o1)Nc1nc2ccccc2s1	-15%
Cc1ccc(Nc2ncnc3c2cnn3C)c(C)c1	-4%
Cc1cc(C)n(-c2nc3ccccc3nc2Nc2ccc(Cl)c(Cl)c2)n1	-2%
O=C(NN1CCOCC1)c1cc(Cl)ccc1Cl	-20%
Cn1cnc(S(=O)(=O)N2CCC(C(=O)Nc3ccc(Cl)c(C(F)(F)F)c3)CC2)c1	9%
Cc1ccccc1C(=O)NC1CCN(CC(=O)Nc2ccccc2Cl)CC1	-3%
Cc1ccc(S(=O)(=O)N2CCOCC2)cc1NC(=O)CNc1ccccc1N1CCCC1=O	-7%
Clc1ccc2nc(CSCc3ccccc3)cn2c1	10%
O=C(CSC1=NC(=O)C(c2ccccc2)C(=O)N1)Nc1ccccc1[N+](=O)[O-] (stereo not drawn)	7%

Only part of the results is shown; count on the stated rates, not on these rows.
